From PubChem BioAssay
NS1 inh = qHTS Assay for Inhibitors of Influenza NS1 Protein Function | S. cerevisiae slowed by influenza A NS1, growth recovery by OD600 | Potency, µM (doses to about 46.1 µM), for inactives: at the top dose activity, positive = more growth | hit rate 0.4% among 270,000 | AID 2326, 2010; active means well fitted rising curve with a large enough effect; inconclusive means small, poorly fitted or top-dose-only effect; inactive means no such curve, though single readings can be large or run the other way; further: nearly all actives have a fitted effect of over 50% in size
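In this qHTS, NS1 from influenza A is expressed in budding yeast, where it slows growth. Cells are switched from glucose to 2% galactose medium (pH 6.0, -URA), treated with compound, and growth recovery is read at OD600.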
LASV entry inh = qHTS for Inhibitors of binding or entry into cells for Lassa Virus; Potency, µM (series often up to 37.9 µM), inactives show at the highest dose activity change, negative = inhibition, usual class: inhibitors; Lassa virus pseudotype entry inhibition, cell reporter; control for the full effect not named in the record; hit rate 1.2% among 300,000; active means well fitted inhibition curve with a large enough effect; inconclusive means small, poorly fitted or top-dose-only effect, or effect the other way; inactive means flat fitted curve, though single readings scatter; tested in HEK293 cells; further: on the % scale 0 is the no-effect control and ±100 the full control effect; nearly all actives have a fitted effect of over 50% in size; luciferase read-out
Cruzain noTriton = qHTS Assay for Promiscuous and Specific Inhibitors of Cruzain (without detergent) | purified cruzain, Z-FR-AMC fluorescence, no detergent | hit rate 2.3% among 200,000 | Potency, µM, for the others: max response, negative = inhibition, usual class: inhibitors | Cruzipain (Trypanosoma cruzi), P25779;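 further: plate controls were enzyme without inhibitor for no effect and buffer without enzyme for full effect; nearly all actives have a fitted effect of over 40% in size; top concentration of the series not given in the record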
Target sequence (P25779 123-467 limits assumed): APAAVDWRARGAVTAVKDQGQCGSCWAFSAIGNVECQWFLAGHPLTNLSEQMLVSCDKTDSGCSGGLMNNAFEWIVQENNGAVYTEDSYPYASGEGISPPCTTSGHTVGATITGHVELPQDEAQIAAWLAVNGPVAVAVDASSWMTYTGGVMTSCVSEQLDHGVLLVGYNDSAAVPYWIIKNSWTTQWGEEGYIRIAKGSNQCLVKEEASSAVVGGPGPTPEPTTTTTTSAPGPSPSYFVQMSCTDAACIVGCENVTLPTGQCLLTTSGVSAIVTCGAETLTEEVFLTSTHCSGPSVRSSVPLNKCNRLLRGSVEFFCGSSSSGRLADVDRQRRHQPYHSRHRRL
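Detergent-free condition (0.00005% Triton X-100) in acetate buffer pH 5.5 with DTT. 1.5 nM enzyme and compound were pre-mixed 15 min, then 2 uM Z-FR-AMC substrate added; reaction progress from fluorescence change between first and third reads (60 s).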
2A StopGo = High Throughput Screening for Foot and Mouth Disease Virus Antivirals; Potency, µM (top dose mostly 57.9 µM), for inactives: at the top dose signal change, negative = less light; hit rate 1.2% among 410,000; human cells with a luciferase reporter of 2A StopGo recoding; control for the full effect not named in the record; active = well fitted falling curve with a large enough effect; inconclusive = small, poorly fitted or top-dose-only effect; inactive = no such curve, though single readings can be large or run the other way; tested in HEK293T cells; further: on the % scale 0 is the no-effect control and ±100 the full control effect; nearly all actives have a fitted effect of over 45% in size; luciferase light after 4 h
RE007 growth inh = qHTS Assay for Inhibitors of the HIV-1 protein Vpr; Potency, µM (highest dose often 92.2 µM), without a hit: at the top dose activity change, negative = less growth; S. pombe RE007 Vpr strain, BacTiter-Glo ATP luminescence, 24 h; control for the full effect not named in the record; hit rate 0.21% among 360,000; active = well fitted falling curve with a large enough effect; inconclusive = small, poorly fitted or top-dose-only effect; inactive = no such curve, though single readings can be large or run the other way;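 further: on the % scale 0 is the no-effect control and ±100 the full control effect; nearly all actives have a fitted effect of over 50% in size; the assay follows cell death caused by Vpr and the record does not say whether a fall means rescue or toxicity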
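Fission yeast strain RE007, carrying one chromosomally integrated HIV-1 vpr copy, was seeded at OD 0.01 in PMG+AL medium with 23 nL pinned compound. After 24 h at 30 °C and 99% humidity, viability was read by BacTiter-Glo luminescence.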
SARS PLpro yeast = qHTS of Yeast-based Assay for SARS-CoV PLP. S. cerevisiae expressing SARS-CoV PLpro, growth rescue; control for the full effect not named in the record. Potency, µM (series often up to 32.9 µM), inactives show at the highest dose activity, positive = growth rescue. hit rate 0.19% among 330,000; active means well fitted rising curve with a large enough effect; inconclusive means small, poorly fitted or top-dose-only effect; inactive means no such curve, though single readings can be large or run the other way; further: 0% is about no effect; nearly all actives have a fitted effect of over 55% in size; growth read by luminescence after 48 h
Cruzain Triton = qHTS Assay for Promiscuous and Specific Inhibitors of Cruzain (with detergent); Cruzipain (Trypanosoma cruzi), P25779; purified cruzain, Z-FR-AMC fluorescence, 0.01% Triton; Potency, µM, inactives show max response, negative = inhibition, actives largely listed as inhibitors; hit rate 0.43% among 200,000; AID 1478, 2009;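 further: plate controls were neutral wells for no effect and buffer without enzyme for full effect; nearly all actives have a fitted effect of over 40% in size; top concentration of the series not given in the record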
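Detergent-containing arm of a paired screen for aggregation-based inhibition: 0.01% Triton X-100 present. Cruzain at 1.5 nM cleaved 2 uM Z-FR-AMC at pH 5.5 with 5 mM DTT; AMC fluorescence gain over 60 s measured activity.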
MARV entry inh = qHTS for inhibitors of binding or entry into cells for Marburg Virus; Marburg virus pseudotyped entry inhibition, cell reporter; control for the full effect not named in the record; about a third of the inactives were read at about 46 µM; Potency, µM (highest dose often 37.8 µM), without a hit: at the highest dose activity change, negative = inhibition, actives largely listed as inhibitors; hit rate 1.8% among 300,000; active = well fitted inhibition curve with a large enough effect; inconclusive = small, poorly fitted or top-dose-only effect, or effect the other way; inactive = flat fitted curve, though single readings scatter; tested in HEK293 cells; about a fifth of its hits are not listed in these tables; further: on the % scale 0 is the no-effect control and ±100 the full control effect; luciferase read-out
An asterisk follows results filed as active; ? = inconclusive; . = no result given; [ ] = dose if it differs, or a comment. Unless noted, the call rests on the fitted dose curve; in most records, active means well fitted curve in the direction sought with a large enough effect; inconclusive means small, poorly fitted or top-dose-only effect, or another doubt; inactive means no such curve, though single readings can be large; an effect the other way counts as inactive or inconclusive. Potency means the concentration at half of the fitted maximal effect. Hits appear at their usual frequency; 4.5% or so of the library scored in one or more.

| compound | NS1 inh | SARS PLpro yeast | 2A StopGo | MARV entry inh | Cruzain Triton | Cruzain noTriton | LASV entry inh | RE007 growth inh |
| --- | --- | --- | --- | --- | --- | --- | --- | --- |
| CCOC(=O)C1=C(C)c2ccccc2OC1C(=O)OCC (configuration not stated) | . | 3% | -19% | . | -2.4% | 0% | . | -5% |
| CCOC(=O)c1cccc(NC2c3ccccc3C(=O)N2Cc2ccco2)c1 (configuration not stated) | -120% | -5% | 13µM* | . | -1.8% | 4% | . | 18% |
| COc1ccc(OC)c(CNCc2c(C(=O)O)n(Cc3ccccc3)c3cc(OC)ccc23)c1 | . | . | 17% | . | 0.0% | 3% | -23%[46.1 µM] | . |
| Cc1nn(-c2ccccc2)c(C)c1/C=N/NC(=O)c1cc(C(C)(C)C)[nH]n1 | 10% | 2% | 0% | 4.5µM* | 3.1% | -4% | ? | -4% |
| CN1CCN(c2ccc(C(=O)c3cn(-c4ccc(F)c(Cl)c4)nn3)cc2)CC1 | . | -6% | 18% | ? | . | . | 7% | 4% |
| COc1ccc(Cl)cc1C(=O)NNC(=O)CSc1nncn1C | . | -12% | 41%[activator] | 16%[46.1 µM] | . | . | 14%[46.1 µM] | 8% |
| O=C(CN1CCN(S(=O)(=O)c2ccc3ccccc3c2)CC1)NC(=O)NC1CCCCC1 | 6% | 6% | -25% | ? | -6.5% | 3% | ? | -5% |
| Cc1ccc(-n2ncc3c(=O)[nH]c(SCC(=O)N4CCCC4)nc32)cc1C | -65% | ? | -13% | -9% | 0.0% | 7% | 2% | 12% |
| COc1ccccc1N1CCN(C(=O)c2ccc3[nH]c4c(c3c2)CC(C)CC4)CC1 (configuration not stated) | 18% | -42% | ? | ? | -13% | -3% | ? | -8% |
| CCCCCCCCNc1nc(Cl)nc(NCc2ccco2)n1 | -7% | -7% | 4% | 2% | -2.0% | 16µM* | -1% | -5% |
| Cc1nn(Cc2ccccc2Cl)c(C)c1N | -9% | 7% | -18% | ? | 7.0% | 6% | 15% | -19% |
| O=C(Nc1ccc(S(=O)(=O)N2CCOCC2)cc1)C1CC1 | -1% | 0% | 0% | 3%[46.1 µM] | . | . | -10%[46.1 µM] | -5% |
| COc1ccc(CN2CC(=O)N(c3cc(Cl)ccc3OC)C2=S)cc1OC | 0% | 0% | ? | . | . | . | . | 8% |
| O=C(CSc1cccc2cccnc12)N/N=C/c1ccncc1 | . | 0% | -17% | -2% | . | . | 3% | -10% |
| CC(Sc1nc2c(c(=O)[nH]1)CCCC2)C(=O)Nc1cc(C(F)(F)F)ccc1Cl (configuration not stated) | . | . | -6% | 17%[46.1 µM] | -5.6% | -8% | ? | . |
| COc1cccc(CC(=O)Nc2nc(-c3cc(OC)ccc3OC)cs2)c1 | -6% | -1% | 34%[activator] | -7%[46.1 µM] | . | . | . | -18% |
| Cc1cccc(Nc2nc(-c3ccc(O)cc3O)cs2)n1 | -48% | -33% | 26% | ? | . | . | -29%[46.1 µM] | ? |
| CN1CCN(C(=O)C2CCCN(S(=O)(=O)c3ccc(F)cc3)C2)CC1 (configuration not stated) | 1% | -1% | -11% | -10%[46.1 µM] | . | . | 8%[46.1 µM] | -1% |
| CCOc1ccccc1NC(=O)c1c(NC(=O)Cc2ccccc2)sc2c1CCCC2 | . | . | 5% | . | -0.9% | -4% | -7%[46.1 µM] | . |
| Cc1ccccc1N(C)C(=O)c1coc(=O)c2ccccc12 | 2% | 3% | 0% | 3%[46.1 µM] | 2.8% | 3% | -2% | 14% |
| COc1cc2[nH]c(=S)n(CC3CCCO3)c(=O)c2cc1OC (configuration not stated) | -14% | 0% | -6% | 20% | -0.6% | -8% | 0% | 11% |
| CC(=O)c1cccc(NC(=S)N2CCC(Cc3ccccc3)CC2)c1 | 8% | 0% | -16% | 0%[14.2 µM] | . | . | -9% | 4% |
| COC(=O)c1ccc(Cl)c(NC(=O)CN(c2ccc(OC)cc2)S(=O)(=O)c2ccccc2)c1 | . | . | -20% | -18% | . | . | ? | 2% |
| O=C(CSc1nnc(-c2ccc(S(=O)(=O)N3CCOCC3)cc2)o1)c1ccccc1F | -7% | -12% | 12% | 11% | -0.4% | 1% | 1% | -14% |
| COc1ccc(-c2cc(=O)oc3cc(OCC(=O)NCc4ccccn4)ccc23)cc1 | 12% | -2% | -21% | . | . | . | . | 10% |
| Cc1ccc(C(=O)N/C(=C/c2ccco2)C(=O)NCCc2c[nH]c3ccccc23)cc1C | 7% | -4% | -17% | -2% | -3.4% | -28% | -19% | -18% |
| Cc1cc(C)cc(OCC(=O)Nc2ccc3c(c2)OCO3)c1 | -3% | -1% | 8% | -7%[46.1 µM] | . | . | 8%[46.1 µM] | 14% |
| CC(C)c1c(O)c2c(n(-c3ccccc3)c1=O)CCCC2 | 8% | 13% | 0% | -13% | -1.8% | 16% | 20% | -5% |
| CN(C)c1ccc(S(=O)(=O)N2CCCCC2)cc1NC(=O)C1=COCCO1 | 10% | -4% | -8% | 12%[46.1 µM] | . | . | -8%[46.1 µM] | 21% |
| NS(=O)(=O)c1ccc(CNC(=O)C(c2ccccc2)c2ccccc2)cc1 | 9% | -1% | -25% | -4% | . | . | ? | -11% |
| O=C(NC(=S)Nc1ccccc1[N+](=O)[O-])c1cncc(Br)c1 | -7% | -5% | 7% | . | . | . | . | -3% |
| COC(=O)c1c(NC(=O)CCC(=O)O)sc(Cc2ccccc2)c1C | -55% | -2% | -11% | . | . | . | . | 5% |
| COc1ccccc1CNC(=O)Cn1nc(C)c([N+](=O)[O-])c1C | . | . | 3% | -14%[46.1 µM] | . | . | 13%[46.1 µM] | 9% |
| O=[N+]([O-])c1ccccc1/C=N/Nc1nc(N2CCCC2)nc(N2CCCC2)n1 | . | 1% | ? | ? | . | . | -18% | -23% |
| Cc1ccc(NS(=O)(=O)c2ccc3c(c2)NC(=O)C(C)C(=O)N3)cc1F (configuration not stated) | . | . | -12% | 2%[46.1 µM] | -4.1% | -4% | 12%[46.1 µM] | . |
| C=CCNC(=O)c1onc(CSc2ccc(F)cc2)c1C(=O)NCCOC | -11% | 8% | -17% | . | 5.3% | 8% | . | 10% |
| CN(C)S(=O)(=O)c1ccc(C(=O)OCC(=O)NCc2ccccc2)cc1 | . | -2% | 10% | 13%[46.1 µM] | . | . | ? | -2% |
| Cc1cccc(NC(=O)CNC(=O)CCc2nc3sc4c(c3c(=O)[nH]2)CCCC4)c1C | . | -3% | -11% | 1% | . | . | 3% | 0% |
| CCc1ccc(/C=C2/SC(=S)N(CCC(=O)Nc3cccnc3)C2=O)cc1 | 13% | -4% | 34%[activator] | . | . | . | . | -5% |
| CCN(CC)c1ccc(NC(=O)C2CCC(CNc3c(N4CCCC4)c(=O)c3=O)CC2)c(C)c1 (configuration not stated) | 6% | -1% | -2% | . | . | . | . | 6% |
| CCN(CC(=O)Nc1c(F)cccc1F)C(=O)c1ccc(S(=O)(=O)N2CCC(C)CC2)cc1 | . | 6% | -26% | ? | . | . | -1% | -20% |
| COc1ccccc1CNC(=O)C1CCN(c2nc3ccc(Cl)cc3[nH]2)CC1 | . | . | -6% | . | -4.9% | -2% | 4%[46.1 µM] | . |
| COC(=O)C1=C(C)NC(C)=C(C(=O)OCC2CCCO2)C1c1cccc(Br)c1 (configuration not stated) | -62% | 0% | -30% | 9% | . | . | -11% | 11% |
| O=C(NN1C(=O)c2ccccc2NC1c1ccco1)c1ccccc1 (configuration not stated) | . | -2% | 20% | 9%[46.1 µM] | . | . | 8% | 8% |
| COc1cc(/C=N/N=C2\CC3CCC2(C)C3(C)C)ccc1O (configuration not stated) | 10% | . | 13% | 23%[46.1 µM] | -0.2% | 18% | -7% | -10% |
| COc1ccc(CCN(C)C(=O)c2ccc(S(=O)(=O)Nc3ccccc3F)cc2)cc1OC | . | . | -6% | 0% | . | . | -26% | 6% |
| CCOc1ccc(N2CC(C(=O)NCCC3=CCCCC3)CC2=O)cc1 (configuration not stated) | -1% | 21% | 0% | 2% | -2.6% | 5% | -1% | -4% |
| O=C(Cn1c(=O)n(Cc2ccco2)c(=O)c2ccccc21)Nc1cccc(Cl)c1 | -16% | 9% | -8% | . | -10% | ? | . | 7% |
| CC(C)N(CCCNC(=O)c1nn(C)c2c1CS(=O)(=O)c1ccccc1-2)Cc1ccccc1 | -10% | -4% | 13% | ? | . | . | 13%[46.1 µM] | -3% |
| C[N+](C)(CCOc1ccccc1)Cc1ccccc1 (tested in a mixture with another compound) | 8% | ? | -7% | -1% | . | . | -4% | 0% |
| NC(=O)C1=C(N)c2ccccc2C1c1ccccc1 (configuration not stated) | . | . | -12% | 2% | . | . | -2%[46.1 µM] | 2% |
| C/C(=N\NC(=S)NC(C)C)c1ccc(C(C)(C)C)cc1 | . | -3% | ? | -29%[46.1 µM] | . | . | ? | 1% |
| C/C(=N/NC(=O)C1COc2ccccc2O1)c1ccc(Br)s1 (configuration not stated) | -1% | -2% | 15% | 15% | . | . | ? | 2% |
| O=C(CCn1nc(-c2ccc(Cl)cc2)ccc1=O)NCCCN1CCCCCC1 | 10% | . | -13% | 1% | -3.1% | -18% | 0% | -4% |
| Cc1cc(NC(=O)c2ccco2)sc1C | . | -14% | 19% | ? | . | . | 7% | ? |
| COc1ccc(CCNS(=O)(=O)c2ccc(-n3cnnn3)cc2)cc1OC | 9% | 1% | -9% | -1%[46.1 µM] | . | . | 13%[46.1 µM] | 24% |
| CC1=C(C(=O)Nc2ccccc2)C(c2ccncc2)C(C#N)=C(SCC(=O)NC2CC2)N1 (configuration not stated) | -2% | 3% | -15% | 6% | -3.6% | -4% | 7% | -8% |
| Cc1ccc(C(=O)c2ccc(N3CCN(C)CC3)c([N+](=O)[O-])c2)cc1 | 3% | 14% | -21% | -8% | -7.2% | -5% | 5% | -11% |
| CN(C)C(=O)CSc1nc(SCC(=O)N(C)C)n(-c2ccccc2)n1 | 0% | 0% | . | 1% | 3.7% | -6% | 7% | -2% |
